SARS PLpro yeast = qHTS of Yeast-based Assay for SARS-CoV PLP. AID 485353, 2010. S. cerevisiae expressing SARS-CoV PLpro, growth rescue; control for the full effect not named in the record. 0.19% of 330,000 active. Potency, µM (titrated, usually from 32.9 µM), without a hit: at the top dose activity, positive = growth rescue; active means well fitted rising curve with a large enough effect; inconclusive means small, poorly fitted or top-dose-only effect; inactive means no such curve, though single readings can be large or run the other way; further: 0% is about no effect; nearly all actives have a fitted effect of over 55% in size; growth read by luminescence after 48 h
NS1 inh = qHTS Assay for Inhibitors of Influenza NS1 Protein Function; 0.4% of 270,000 active; Potency, µM (series often up to 46.1 µM), for inactives: at the highest dose activity, positive = more growth; S. cerevisiae slowed by influenza A NS1, growth recovery by OD600; AID 2326, 2010; active means well fitted rising curve with a large enough effect; inconclusive means small, poorly fitted or top-dose-only effect; inactive means no such curve, though single readings can be large or run the other way; further: nearly all actives have a fitted effect of over 50% in size
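OD600 was taken as the measure of yeast growth restored by compound in an NS1-expressing S. cerevisiae strain. Cells had been washed out of glucose medium and diluted 1:100 into galactose -URA medium, pH 6.0.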
RE007 growth inh = qHTS Assay for Inhibitors of the HIV-1 protein Vpr. S. pombe RE007 Vpr strain, BacTiter-Glo ATP luminescence, 24 h; control for the full effect not named in the record. Potency, µM (highest dose often 92.2 µM), without a hit: at the top dose activity change, negative = less growth. 0.21% of 360,000 active; active = well fitted falling curve with a large enough effect; inconclusive = small, poorly fitted or top-dose-only effect; inactive = no such curve, though single readings can be large or run the other way;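 further: on the % scale 0 is the no-effect control and ±100 the full control effect; nearly all actives have a fitted effect of over 50% in size; the assay follows cell death caused by Vpr and the record does not say whether a fall means rescue or toxicity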
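Fission yeast RE007 carrying one integrated HIV-1 vpr copy, seeded at OD 0.01 in PMG+AL medium with 23 nL pinned compound. Grown 24 h at 30 degrees; viability read by BacTiter-Glo luminescence after 5 min.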
StopGo reporter = High Throughput Screening for Foot and Mouth Disease Virus Antivirals; human cells with a luciferase reporter of 2A StopGo recoding; control for the full effect not named in the record; Potency, µM (series often up to 57.9 µM), for the others: at the top dose signal change, negative = less light; 1.2% of 410,000 active; AID 1159524, 2015; active = well fitted falling curve with a large enough effect; inconclusive = small, poorly fitted or top-dose-only effect; inactive = no such curve, though single readings can be large or run the other way; tested in HEK293T cells; further: on the % scale 0 is the no-effect control and ±100 the full control effect; nearly all actives have a fitted effect of over 45% in size; luciferase light after 4 h
Cruzain Triton = qHTS Assay for Promiscuous and Specific Inhibitors of Cruzain (with detergent). Cruzipain (Trypanosoma cruzi), P25779. purified cruzain, Z-FR-AMC fluorescence, 0.01% Triton. Potency, µM, without a hit: max response, negative = inhibition, most hits filed as inhibitors. 0.43% of 200,000 active;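 further: plate controls were neutral wells for no effect and buffer without enzyme for full effect; nearly all actives have a fitted effect of over 40% in size; top concentration of the series not given in the record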
Target sequence (P25779 123-467 limits assumed): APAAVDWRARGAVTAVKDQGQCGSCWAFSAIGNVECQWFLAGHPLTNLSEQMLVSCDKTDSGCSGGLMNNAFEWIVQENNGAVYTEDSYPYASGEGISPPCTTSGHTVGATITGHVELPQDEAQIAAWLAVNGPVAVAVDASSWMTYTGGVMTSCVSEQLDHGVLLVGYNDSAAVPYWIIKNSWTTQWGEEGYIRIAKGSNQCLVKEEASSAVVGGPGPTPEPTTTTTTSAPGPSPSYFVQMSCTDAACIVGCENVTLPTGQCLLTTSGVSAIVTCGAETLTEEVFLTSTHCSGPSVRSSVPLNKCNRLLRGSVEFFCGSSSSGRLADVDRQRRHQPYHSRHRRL
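15 min RT preincubation of 1.5 nM cruzain with compound, then 2 uM Z-FR-AMC added; kinetic AMC fluorescence, 60 s delta. Triton X-100 0.01%, pH 5.5.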
LASV entry inh = qHTS for Inhibitors of binding or entry into cells for Lassa Virus; AID 540256, 2011; 1.2% of 300,000 active; Potency, µM (doses to about 37.9 µM), inactives show at the top dose activity change, negative = inhibition, usual class: inhibitors; Lassa virus pseudotype entry inhibition, cell reporter; control for the full effect not named in the record; active means well fitted inhibition curve with a large enough effect; inconclusive means small, poorly fitted or top-dose-only effect, or effect the other way; inactive means flat fitted curve, though single readings scatter; tested in HEK293 cells; further: on the % scale 0 is the no-effect control and ±100 the full control effect; nearly all actives have a fitted effect of over 50% in size; luciferase read-out
Cruzain inh noDet = qHTS Assay for Promiscuous and Specific Inhibitors of Cruzain (without detergent). 2.3% of 200,000 active. purified cruzain, Z-FR-AMC fluorescence, no detergent. Potency, µM, for inactives: max response, negative = inhibition, actives largely listed as inhibitors. AID 1476, 2009. Cruzipain (Trypanosoma cruzi), P25779;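 further: plate controls were enzyme without inhibitor for no effect and buffer without enzyme for full effect; nearly all actives have a fitted effect of over 40% in size; top concentration of the series not given in the record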
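Purified cruzain at 1.5 nM, pre-incubated 15 min with compound at room temperature in 100 mM sodium acetate pH 5.5, 5 mM DTT, 0.00005% Triton X-100. Reaction started with 2 uM Z-FR-AMC; AMC fluorescence increase over 60 s gives rate.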
MARV entry inh = qHTS for inhibitors of binding or entry into cells for Marburg Virus. Marburg virus pseudotyped entry inhibition, cell reporter; control for the full effect not named in the record; about a third of the inactives were read at about 46 µM. Potency, µM (top dose mostly 37.8 µM), without a hit: top-dose activity change, negative = inhibition, usual class: inhibitors. 1.8% of 300,000 active. AID 540276, 2011; active = well fitted inhibition curve with a large enough effect; inconclusive = small, poorly fitted or top-dose-only effect, or effect the other way; inactive = flat fitted curve, though single readings scatter; tested in HEK293 cells; about a fifth of its hits are not listed in these tables; further: on the % scale 0 is the no-effect control and ±100 the full control effect; luciferase read-out
* marks the source's active call; other numbers are inactive results; u = inconclusive; x = not tested or not shown; & = joins results of further samples; [ ] = remark or other dose. Unless noted, the call rests on the fitted dose curve; in most records, active means well fitted curve in the direction sought with a large enough effect; inconclusive means small, poorly fitted or top-dose-only effect, or another doubt; inactive means no such curve, though single readings can be large; an effect the other way counts as inactive or inconclusive. Potency means the concentration at half of the fitted maximal effect. Compounds as they come (roughly 4.7% active in at least one column).

SMILES	SARS PLpro yeast	NS1 inh	RE007 growth inh	StopGo reporter	Cruzain Triton	LASV entry inh	Cruzain inh noDet	MARV entry inh
CCn1c(Cn2nnc(-c3ccccc3)n2)nnc1SCC(=O)Nc1ccc(C(C)=O)cc1	1.9%	-16.0%	-6.6%	x	-5.1%	13.5%	0.1%	u
CCC(C)NC(=O)C1CCCN(S(=O)(=O)c2ccc(-n3cnnn3)cc2)C1 (stereo unspecified)	u	-2.0%	-7.2%	-10.5%	4.7%	6.6%	-10.2%	-2.7%
CCc1nnc(NC(=O)CCC(=O)NCc2ccc(C)cc2)s1	1.1%	9.4%	10.0%	0.2%	x	-4.5%[46.1 µM]	x	1.9%[46.1 µM]
CCOc1ccc(C(=O)Nc2cccc([N+](=O)[O-])c2)cc1Br	-16.0%	15.1%	-3.1%	7.4%	-4.5%	19.2%	-3.0%	u
CCOc1ccc(CNn2nnnc2N)cc1	-0.3%	7.3%	3.8%	4.1%	1.1%	-13.0%	-2.2%	15.7%[46.1 µM]
O=C1CCCCC1Nc1ccc([N+](=O)[O-])cc1 (stereo unspecified)	x	x	0.3%	-14.9%	x	u	x	27.5%
Cc1noc(Cn2c(=O)c3cc4c(cc3n(CC(=O)Nc3ccccc3F)c2=O)OCO4)n1	x	x	x	-6.7%	-2.6%	9.5%[46.1 µM]	3.0%	x
O=C(NCCC(=O)N1CCCCC1)c1ccccc1Cl	-5.1%	6.9%	-6.3%	0.2%	x	u	x	9.4%[46.1 µM]
COC(=O)c1cc2oc3ccccc3c2n1CC(=O)Nc1ccc(C)cc1C	x	x	x	29.4%	-1.6%	x	3.9%	8.3%[46.1 µM]
CCN(CC)C(=O)c1cccc(NC(=O)CC23CC4CC(CC(C4)C2)C3)c1	0.7%	9.3%	1.0%	3.0%	x	x	x	-17.0%[46.1 µM]
Oc1ccccc1/C=N/NC(=S)NC1CC2CC1C1C=CCC21 (stereo unspecified)	-0.4%	3.7%	u	-13.2%	x	u	x	u
O=C(O)c1ccc2c(c1)N(Cc1ccc(F)cc1Cl)C(=O)c1ccccc1S2	x	x	x	-17.6%	-0.7%	18.1%[46.1 µM]	u	x
CC(C)OC(=O)/C(C#N)=C/c1c[nH]c2ccccc12	-16.0%	-8.8%	-4.4%	6.9%	-15.4%	u	-1.9%	-0.1%
CCOc1ccc(N2C(=O)C3CCCN3C2=O)cc1 (stereo unspecified)	2.0%	-0.2%	26.9%	9.0%	4.1%	28.5%	-0.5%	-0.4%
CC(=O)N1CCc2cc(S(=O)(=O)NCCCN3CCC(C)CC3)ccc21	1.2%	15.1%	-0.7%	1.1%	x	16.6%[46.1 µM]	x	-3.2%[46.1 µM]
CCN1C(=O)C(CC(=O)NCCc2ccccc2)N(NC(=O)c2cccnc2)C1=S (stereo unspecified)	5.0%	x	-3.1%	-3.3%	x	9.2%	x	-7.5%[46.1 µM]
Cc1cc(C(=O)Nc2ccccc2C(=O)O)oc1C	4.5%	-23.3%	-9.6%	53.8%[activator]	x	x	x	x
COCCN(C(=O)Nc1ccccc1OC)c1nc2ccccc2s1	4.1%	-36.8%	-8.6%	-7.7%	x	x	x	x
COc1ccc(CCN2CC(C(=O)NCC(c3ccccc3)N(C)C)CC2=O)cc1OC (stereo unspecified)	-9.7%	x	7.9%	34.4%	x	24.9%[46.1 µM]	x	u
CC(=O)c1cccc(NC(=O)CCn2nc(C)c(S(=O)(=O)N(C)C)c2C)c1	x	x	x	-18.7%	-0.6%	14.0%[46.1 µM]	-12.9%	x
O=C(c1cnn(-c2ccccc2)c1-n1cccc1)N1CCN(C2CCCCC2)CC1	0.0%	-1.4%	-2.4%	0.0%	x	x	x	x
CC(NC(=O)CN1c2cccc3cccc(c23)S1(=O)=O)c1ccc(S(N)(=O)=O)cc1 (stereo unspecified)	x	x	3.0%	-27.9%	x	-14.6%	x	1.7%
Cc1ccc(NC2=C(Cl)C(=O)c3ccccc3C2=O)cc1	15.6%	10.7%	-2.1%	-37.3%	-4.1%	12.6µM*	-2.2%	u
O=C(NCCc1ccc(Cl)cc1)c1ccc2[nH]c(=O)c(=O)[nH]c2c1	-1.7%	6.1%	11.7%	5.4%	x	x	x	x
COc1ccc(CCN(C)C(=O)c2ccc(S(=O)(=O)NCc3ccco3)cc2)cc1OC	7.1%	10.9%	16.6%	-13.6%	2.9%	-0.1%	-0.1%	u
O=C(CCCn1c(SCC(=O)c2ccccc2)nc2ccccc2c1=O)NCC1CCCO1 (stereo unspecified)	4.0%	-2.9%	-2.5%	-11.3%	-2.7%	-1.9%	u	-25.5%
Cc1cc(C)nc(NC(=O)/C=C/c2cccs2)c1	-13.9%	-47.4%	11.0%	x	-5.3%	9.9%	-9.8%	u
CCn1c(=O)cc(N2CCCCC2)[nH]c1=O	5.1%	-4.2%	9.8%	-25.9%	5.7%	11.4%	3.4%	5.1%
Cn1c(SCC(=O)Nc2ccc3nc(SCC(=O)N4CCCC4)sc3c2)nnc1-c1ccc(N)cc1	-2.2%	20.9%	0.6%	-1.6%	-16.2%	4.2%	u	-12.3%
COc1ccc(-n2c(Cc3cccn3C)nnc2SCC(=O)Nc2ccccc2OC)cc1	-29.8%	-5.9%	-9.1%	u	-1.5%	-4.0%	15.3%	u
Cc1cc(NC(=O)NCc2ccccc2)c(=O)n(Cc2ccc(F)cc2)c1	-9.7%	11.2%	-2.4%	2.0%	x	u	x	u
Cc1ccc(C)c2[nH]c(=O)c(C(c3nnnn3CCc3ccccc3)N3CCOCC3)cc12 (stereo unspecified)	4.4%	-6.6%	-9.5%	0.0%	-2.4%	u	29.9%	u
CCOC(=O)CN(Cc1sccc1C)C(=O)Nc1ccc(OC)cc1OC	-5.3%	1.2%	37.2%	-17.8%	-0.3%	-20.7%	10.0%	5.1%
C/C(=N\Nc1ccccc1)c1c(O)[nH]c(=O)[nH]c1=O	0.3%	-5.2%	183.6%	6.6%	x	u	x	u
CCOC(=O)CON1C(=O)C(=O)N(OCC(=O)OCC)[C@H]2CCCC[C@H]21	-0.7%	0.4%	9.1%	1.4%	x	13.7%[46.1 µM]	x	7.5%[46.1 µM]
CCOc1ccc(CCNC(=O)c2ccc3nc(CC)c(CC)nc3c2)cc1	1.3%	7.1%	5.7%	-21.4%&29.8%	1.0%	u	-8.1%	x
COc1cc(NC(=O)CN2CC(c3ccccc3)CC2=O)cc(OC)c1 (stereo unspecified)	19.0%	-26.1%	-7.8%	-14.3%	-2.9%	x	10.8%	x
Cc1ccc2oc(Nc3nc(C)c(C)c(C)n3)nc2c1	0.8%	0.7%	0.1%	65.6%[activator]	x	x	x	x
COc1ccc(CNC(=O)COC(=O)c2cc3ccccc3cc2O)cc1OC	3.8%	x	1.3%	1.4%	x	1.3%	x	10.1%
Cc1cccc(OCC(=O)Nc2ccc(S(=O)(=O)Nc3onc(C)c3C)cc2)c1C	-3.0%	-53.6%	-4.1%	-1.8%&-4.7%	-18.2%	9.0%	u	12.1%
CCn1c2ccccc2c2cc(NC(=O)COC(=O)c3cc(Cl)c(N)cc3OC)ccc21	-0.4%	3.0%	-2.1%	-28.2%	x	x	x	x
CCOc1cc(CN2CCC(n3nccc3NC(=O)C3CC3)CC2)ccc1O	-3.9%	-4.8%	1.6%	11.3%	x	x	x	x
Cc1cc(=O)[nH]c(=O)n1Cc1ccccc1	0.3%	x	2.4%	5.3%	x	6.0%	x	5.8%[46.1 µM]
O=C(COC(=O)CNC(=O)c1ccc(Cl)cc1Cl)NC1CC1	1.0%	x	-3.0%	19.2%	x	1.4%	x	u
COc1ccc(CCNC(=O)CN2C(=O)CSc3ccc(S(=O)(=O)N4CCOCC4)cc32)cc1OC	2.4%	-1.6%	-17.9%	-19.2%	x	x	x	x
O=C1OC(Oc2ccc(Br)cc2)(c2ccccc2)c2ccccc21 (stereo unspecified)	x	x	13.3%	38.3%[activator]	x	3.8%[46.1 µM]	x	u
CC1Cc2cc(S(=O)(=O)N3CCN(C)CC3)ccc2N1C(=O)C1CC1 (stereo unspecified)	-0.4%	-11.0%	3.3%	5.9%	x	21.1%[46.1 µM]	x	7.6%[46.1 µM]
CCOc1ccc(N2CC(=O)N(c3ccc(OCC)cc3)CC2=O)cc1	-0.4%	2.3%	-10.8%	11.4%	1.0%	4.1%	-9.3%	-0.1%
CCOc1ccc(NS(=O)(=O)c2ccc(C(=O)NCC(c3ccccc3OC)N3CCCC3)cc2)cc1 (stereo unspecified)	x	x	-29.3%	-11.4%	x	u	x	u
CCN(CC)C(=O)C(=O)c1cn(CC(=O)N2CCc3ccccc3C2)c2ccccc12	2.3%	x	8.3%	-15.5%	x	2.5%	x	-13.7%

(list continues)
SMILES	SARS PLpro yeast	NS1 inh	RE007 growth inh	StopGo reporter	Cruzain Triton	LASV entry inh	Cruzain inh noDet	MARV entry inh
Cc1cc(C(=O)N/N=C/c2ccc([N+](=O)[O-])o2)c(C)o1	-2.7%	-1.9%	-9.2%	u	x	x	x	x
FC(F)(F)c1nnc2ccc(N3CCOCC3)nn12	3.4%	-1.1%	8.0%	-8.4%	5.4%	14.9%	-0.2%	0.6%
CC(C)CN1C=C2C(=O)C(C)(OC(=O)CCc3ccccc3)C(=O)C=C2C=C1c1ccc(C#N)cc1 (stereo unspecified)	0.1%	1.9%	-16.5%	-0.7%	x	x	x	x
CSc1ccc(Cl)c(C(=O)NCCOc2ccccc2)c1	-10.1%	-16.9%	27.4%	1.6%	0.7%	-4.2%	-3.6%	7.3%
Cc1cc(O)c(/C=N/Nc2ccccc2)c(=O)o1	-6.6%	-5.9%	226.8%	-9.5%	-6.7%	u	-4.6%	-2.2%
Cc1ccccc1C(=O)N(CC(=O)Nc1sc(C)c(C)c1C(N)=O)C1CCCC1	0.3%	15.3%	6.5%	-25.4%	x	u	x	-27.3%[46.1 µM]
CCOC(=O)c1ccc(NC(=O)COC(=O)Cc2csc(-c3ccccc3)n2)cc1	-12.7%	-2.5%	x	38.3%[activator]	-8.9%	4.1%	26.2%	12.4%
N#CC1=C(N)OC2=C(C(=O)CCC2)C1c1cc2c(cc1Cl)OCO2 (stereo unspecified)	2.5%	16.0%	14.2%	-15.9%	x	6.4%[46.1 µM]	x	1.9%[46.1 µM]
CCOc1ccc(OCCC(=O)N(CC)CC(=O)NCc2ccc(Cl)cc2)cc1	1.4%	x	10.9%	2.3%	x	u	x	-0.8%[46.1 µM]
